HSV replic up = enhancers of HSV replication in host cells, fold increase, host cell viability. HSV replication augmentation in cells. maximum fold increase. 220,000 tested, 0.005% active. AID 1956, 2009;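 active = peak rise of 1.5-fold or more in the series; inconclusive = self-fluorescent or not available for retest; tested in PC3 cells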;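 note: first round at 10 µM; read as green reporter fluorescence; hits show the peak of a series up to 25 µM; 1 = signal of infected wells without compound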
Insulin prom inh = inhibitors of insulin promoter-driven GFP, primary screen, imaging, TRM-6 cells (human fetal islet line), eGFP reporter, cell count; AID 1273, 2008; reporter expression induced with tamoxifen; 130,000 tested, 0.9% active; inhibition, % at 2 µM;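 active = inhibition above the mean plus 3 SD, with well images judged a real hit on visual review, cut at about 60% in these data, passing the limit was not always enough; inconclusive = inhibition over the cutoff but images rejected on review; inactive = inhibition not above the cutoff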
PKD1 inh = inhibitors of human PKD1 kinase, biochemical, fluorescence polarization | 200,000 tested, 0.056% active | AID 797, 2007 | inhibition, %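 (about 10 µM by stock and volumes)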 | PKD1 kinase fluorescence polarization assay;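 active = inhibition of 50% or more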;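 note: controls were vehicle for no effect and a reference inhibitor for full effect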
RGS16-Gao = modulators of RGS16 binding to Galphao, primary screen, biochemical, human proteins, multiplexed bead flow cytometry; Regulator of G-protein signaling 16 (Homo sapiens) + Guanine nucleotide-binding protein …; bead-based flow cytometry RGS16-Galphao binding, fluorescence; actives lie on both sides; binding response (% of control), % at 10 µM; 220,000 tested, 0.38% active; AID 1441, 2008;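 active = below 25% or above 175%, edge rows of some plates excepted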;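 note: Galphao activated by GDP with aluminum fluoride before binding; 100% = wells without compound and 0% = beads without RGS; some results beyond the cut were filed as inactive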
Target sequence (O15492 whole entry, looked up): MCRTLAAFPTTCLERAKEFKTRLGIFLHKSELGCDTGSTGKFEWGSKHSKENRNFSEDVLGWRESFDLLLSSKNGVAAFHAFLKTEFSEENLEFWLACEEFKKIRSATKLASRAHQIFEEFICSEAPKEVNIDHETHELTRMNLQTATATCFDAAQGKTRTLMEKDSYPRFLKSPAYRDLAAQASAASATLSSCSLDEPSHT
Target sequence (P09471 whole entry, looked up): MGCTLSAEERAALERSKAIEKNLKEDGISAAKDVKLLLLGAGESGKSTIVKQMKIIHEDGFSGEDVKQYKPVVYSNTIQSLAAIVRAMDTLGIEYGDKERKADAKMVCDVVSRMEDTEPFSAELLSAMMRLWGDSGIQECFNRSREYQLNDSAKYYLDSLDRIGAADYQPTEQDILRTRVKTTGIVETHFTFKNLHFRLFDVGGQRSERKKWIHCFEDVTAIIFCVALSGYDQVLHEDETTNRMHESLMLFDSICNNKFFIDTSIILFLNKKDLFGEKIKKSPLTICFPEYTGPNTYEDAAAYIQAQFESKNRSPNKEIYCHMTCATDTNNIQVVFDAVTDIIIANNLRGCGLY
GALR2 ag = GALR2 receptor agonists, primary screen, cell-based; Galanin receptor type 2 (Homo sapiens), O43603; GALR2-expressing cells, agonist activation read-out; activation, %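 (tested at 5 µM)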; 140,000 tested, 0.48% active; AID 803, 2007;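 active = above mean plus 3 SD of all compounds, about 5% in these data, not always enough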;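 note: 0% = vehicle buffer wells and 100% = reference agonist at full effect; tested in CHO reporter cells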
Target sequence (O43603 whole entry, looked up): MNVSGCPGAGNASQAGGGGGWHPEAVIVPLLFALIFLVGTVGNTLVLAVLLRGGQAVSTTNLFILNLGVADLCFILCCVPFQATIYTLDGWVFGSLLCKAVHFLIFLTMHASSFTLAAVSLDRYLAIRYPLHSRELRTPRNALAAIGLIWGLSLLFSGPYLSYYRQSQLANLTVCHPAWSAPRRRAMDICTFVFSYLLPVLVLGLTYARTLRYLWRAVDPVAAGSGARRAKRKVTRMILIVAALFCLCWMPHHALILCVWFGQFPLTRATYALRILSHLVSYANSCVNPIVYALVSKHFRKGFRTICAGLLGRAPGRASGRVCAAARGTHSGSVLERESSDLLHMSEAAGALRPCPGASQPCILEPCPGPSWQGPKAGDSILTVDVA
Insulin prom inh cell count = also measured in Insulin prom inh; calls as there; normalized cell count, %; measured here: cell count, toxicity; reference of the scale not given here;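 cells exposed to compound for 48 h; stained nuclei by imaging scaled within each plate; lower means fewer cells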
HSV replic up primary fold = second read-out of HSV replic up, no call of its own (marks repeat the call); fold increase; compound at 10 µM; measured here: primary screen fold increase 10 uM; tested in PC3 cells;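 GFP signal in the first replicate; 1 = infected wells without compound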
* = called active by the depositor; i = inactive; ? = inconclusive; / = no result given.

SMILES | HSV replic up | HSV replic up primary fold | Insulin prom inh | Insulin prom inh cell count | PKD1 inh | RGS16-Gao | GALR2 ag
Cc1cc2nc(SCCOC(=O)Nc3cccc(Cl)c3)nc(C)c2cc1C | i | 0.98 | -48.5 | 74.4 | -2.9 | 151.3 | 0.0
COc1ccc(OC)c(N(CC(=O)NCc2ccncc2)S(C)(=O)=O)c1 | i | 0.87 | 10.8 | 110.9 | -2.5 | 95.9 | -1.1
O=C(NC1CCSC1=O)c1ccc(Oc2ccc(F)cc2)nc1 (stereo unspecified) | i | 0.83 | -10.3 | 127.0 | 1.4 | 103.0 | -1.8
O=C(Nc1cccnc1)c1cccnc1 | i | 0.68 | -3.7 | 93.3 | -6.3 | 102.0 | -1.2
COCCNC(=O)CSc1cc(-c2ccccc2)c2ccc(OC)cc2n1 | i | 0.89 | / | / | 3.1 | 96.1 | /
CCNc1nc(NCC)n2c(SC(C(=O)Nc3cc(C)ccc3C)c3ccccc3)nnc2n1 (stereo unspecified) | i | 0.9 | / | / | 8.3 | 103.0 | -0.3
CC1(C)c2ccccc2N2CCC(=O)NC21/C=C/c1ccco1 (stereo unspecified) | i | 1.2 | / | / | -8.8 | 84.5 | 6.1*
Cc1ccc(CNC(=O)C(=O)NCCCn2ccnc2)cc1 | i | 0.83 | 15.4 | 120.9 | -14.3 | 102.3 | -2.9
CC(=O)Nc1ccc(S(=O)(=O)Nc2nc3ccccc3nc2Nc2ccc3ccccc3c2)cc1 | ? | / | 29.6 | 87.3 | -2.4 | 101.9 | 0.5
CC(CCc1ccc(O)cc1)N(C)CCc1ccccc1 (stereo unspecified) | i | 0.63 | / | / | -9.4 | 119.3 | -3.0

Five entries out of the list above, ordered by the number in PKD1 inh, smallest number first:
canonical_smiles,HSV replic up primary fold,PKD1 inh,RGS16-Gao,GALR2 ag
CC(CCc1ccc(O)cc1)N(C)CCc1ccccc1 (stereo unspecified),0.63,-9.4,119.3,-3.0
CC1(C)c2ccccc2N2CCC(=O)NC21/C=C/c1ccco1 (stereo unspecified),1.2,-8.8,84.5,6.1*
O=C(Nc1cccnc1)c1cccnc1,0.68,-6.3,102.0,-1.2
COc1ccc(OC)c(N(CC(=O)NCc2ccncc2)S(C)(=O)=O)c1,0.87,-2.5,95.9,-1.1
CC(=O)Nc1ccc(S(=O)(=O)Nc2nc3ccccc3nc2Nc2ccc3ccccc3c2)cc1,/,-2.4,101.9,0.5

Remaining list, next part.
SMILES | HSV replic up | HSV replic up primary fold | Insulin prom inh | Insulin prom inh cell count | PKD1 inh | RGS16-Gao | GALR2 ag
CC(C)CCNC(=O)c1cccc(Cl)c1 | / | / | 60.0 | 138.8 | -7.4 | 99.4 | -1.5
CC(C)(C)OC(=O)NC(Cc1ccccc1)C(=O)NCCCC(=O)O (stereo unspecified) | i | 0.9 | / | / | / | 100.4 | /
Cc1cccc(Cc2c(C)nc3nc(SCC(=O)O)nn3c2C)c1 | i | 0.97 | / | / | -1.7 | 88.6 | /
Cc1ccccc1CNC(=O)CC1C(=O)NCCN1Cc1c(F)cccc1Cl (stereo unspecified) | i | 1.01 | 8.3 | 78.6 | -3.2 | 89.5 | /
COc1ccc(-c2csc(N(CCc3ccccc3)C(=O)COc3ccccc3)n2)cc1 | / | / | 25.6 | 77.1 | 1.2 | 97.5 | -0.5
CCN(CC)CCN(C)C1CCC(c2ccccc2)CC1 (stereo unspecified) | i | 0.81 | 20.0 | 93.2 | -2.4 | 110.0 | -0.5
c1cc2c(cc1C1CCCCC1)c1c3n2CCN=C3CCC1 | i | 0.82 | -81.0 | 103.0 | -5.8 | 147.6 | 3.1
Cc1c(-c2ccc(F)cc2)[n+](=O)c(-c2ccc(F)cc2)c(C)n1[O-] | i | 1.03 | 8.3 | 96.7 | 1.3 | 103.8 | -2.1
Cc1ccc(-c2csc3ncnc(NCCN4CCOCC4)c23)cc1 | i | 0.79 | 29.4 | 75.3 | 0.3 | 99.7 | -0.8
CCOC(=O)N1CCN(C(=O)CC(C(=O)N2CCc3ccccc32)n2ccnc2)CC1 (stereo unspecified) | i | 1.1 | / | / | -6.4 | 100.4 | -1.2

GALR2 ag: what is marked active above
compound | HSV replic up primary fold | PKD1 inh | RGS16-Gao | GALR2 ag
CC1(C)c2ccccc2N2CCC(=O)NC21/C=C/c1ccco1 (stereo unspecified) | 1.2 | -8.8 | 84.5 | 6.1*

The listing picks up; the 3 compounds before the break are reprinted first.
SMILES | HSV replic up | HSV replic up primary fold | Insulin prom inh | Insulin prom inh cell count | PKD1 inh | RGS16-Gao | GALR2 ag
Cc1c(-c2ccc(F)cc2)[n+](=O)c(-c2ccc(F)cc2)c(C)n1[O-] | i | 1.03 | 8.3 | 96.7 | 1.3 | 103.8 | -2.1
Cc1ccc(-c2csc3ncnc(NCCN4CCOCC4)c23)cc1 | i | 0.79 | 29.4 | 75.3 | 0.3 | 99.7 | -0.8
CCOC(=O)N1CCN(C(=O)CC(C(=O)N2CCc3ccccc32)n2ccnc2)CC1 (stereo unspecified) | i | 1.1 | / | / | -6.4 | 100.4 | -1.2
O=c1c2ccccc2nc(/C=C/c2ccc(O)cc2)n1CCc1ccccc1 | i | 1.2 | -53.3 | 95.7 | -1.0 | 100.8 | 1.1
O=C1OCCC1Sc1nnc(-c2ccc(O)cc2)o1 (stereo unspecified) | i | 0.93 | 27.0 | 25.0 | -9.4 | 91.0 | -0.1
O=[N+]([O-])c1cccnc1N1CCN(c2ccccc2F)CC1 | i | 0.96 | 27.8 | 113.7 | -0.8 | 109.8 | /
CCCC(=O)Nc1cc(C)c(NC(=O)C23CC4CC(CC(C4)C2)C3)cn1 | i | 0.86 | 57.1 | 102.5 | -0.3 | 94.1 | -5.6
COc1cccc(OCC(=O)NNC(=O)Cc2cccs2)c1 | i | 1.03 | -16.7 | 77.1 | -8.7 | 113.0 | 0.8
COc1cc(/C=C2/NC(=O)N(c3cccc(Cl)c3)C2=O)ccc1O | i | 1.04 | / | / | -8.0 | 95.5 | /
NC(=O)CNC(=O)[C@@H]1CC2(CC(c3cccc(Br)c3)=NO2)CN1C(=O)c1ccc(Br)cc1 (stereo partly specified) | i | 1 | / | / | -0.8 | 104.5 | -2.9
OCCNc1c2ccccc2nc2ccccc12 | i | 0.68 | / | / | 3.1 | 100.2 | /
CSc1ccc(/C=C/c2cc(=O)c3ccccc3[nH]2)cc1 | i | 1.03 | 44.1 | 86.0 | -7.4 | 106.8 | -0.2
CCn1c(C)cs/c1=N\C(=S)Nc1ccccc1C | i | 0.98 | / | / | -7.8 | 159.4 | -0.8
CCn1c(SCC(=O)Nc2ccc(S(=O)(=O)Nc3onc(C)c3C)cc2)nnc1-c1ccccc1 | i | 1.03 | 0.0 | 74.8 | -2.5 | 103.6 | -1.2
CC1(C)C=C(c2ccc(C=O)s2)CC(C)(C)N1C=O | i | 1.06 | 17.2 | 94.7 | -6.6 | 111.6 | 14.1*
CCn1c2ccccc2c2cc(NC(=O)C(=O)NCC3CCCO3)ccc21 (stereo unspecified) | i | 0.9 | / | / | -2.5 | 100.8 | /
O=C(Cc1c[nH]c2ccccc12)N/N=C/c1ccc(F)cc1 | i | 0.95 | 18.2 | 66.9 | 9.2 | 21.1* | -1.3
COC(=O)c1[nH]c2cccc(C)c2c1NC(=O)CN1CCN(c2ccccc2OC)CC1 | i | 0.91 | -9.1 | 130.9 | -1.4 | 99.5 | -2.1
CCNc1ccc(Br)cc(C(=O)/C=C/c2ccccc2Cl)c1=O | i | 1.2 | i | 39.9 | -0.5 | / | -2.8
CC(=O)Nc1ccc(S(=O)(=O)N2CCSC2c2ccc(C)cc2)cc1 (stereo unspecified) | i | 1.22 | 30.8 | 46.2 | -5.6 | 100.0 | -0.2
CCCN1C(=O)/C(=C2\SC(N3CCCCC3)=NC2=O)c2ccccc21 | i | 0.51 | / | / | -4.2 | 104.8 | 59.1*
CNC(=O)COC(=O)c1ccc(Cl)c(S(N)(=O)=O)c1 | i | 1.1 | / | / | / | 78.9 | /
O=C(COc1ccccc1)N1CCN(c2ccccc2)CC1 | i | 0.95 | -7.7 | 87.1 | 2.7 | 107.8 | -2.7
CCOC(=O)C1(Cc2ccccc2C(F)(F)F)CCN(C2CCN(C(C)=O)CC2)CC1 | i | 1.03 | / | / | 0.5 | 103.5 | /
COc1ccccc1NC(=O)NCCC1=CCCCC1 | i | 0.93 | / | / | -1.6 | 99.8 | /
O=C(CSc1nnc(-c2ccccc2O)o1)Oc1ccc(OCc2ccccc2)cc1 | i | 0.87 | / | / | 2.1 | 106.2 | -0.4
Cc1cc(N2CCOCC2)nc(SCC(=O)c2ccccc2)n1 | i | 0.88 | -11.1 | 84.3 | -17.0 | 110.3 | -1.9
O=C(c1ccco1)N1CCN(C(c2ccccc2F)c2nnnn2CC2CCCO2)CC1 (stereo unspecified) | i | 0.9 | / | / | -6.9 | 100.3 | -0.9
Cc1onc(-c2ccccc2)c1C1=N/C(=C\c2ccccc2F)C(=O)O1 | i | 0.88 | -36.4 | 115.4 | -2.0 | 102.6 | /
Cc1cc(C(=O)N2CCC(Cc3ccccc3)CC2)ccc1[N+](=O)[O-] | i | 0.87 | 20.8 | 92.7 | 0.3 | 100.4 | -0.5
CCN1C(=O)N[C@@H](CCc2ccccc2)[C@@H](C(=O)OC)[C@H]1C | i | 1.1 | / | / | / | 103.8 | /
CC1(C)Cc2c(cnn2-c2ccccc2)C(=O)/C1=N\NC(=O)c1ccncc1 | i | 1.04 | -131.2 | 86.2 | -4.1 | / | -0.3
COc1ccc(OCC(O)CN2CCN(c3ccccc3)CC2)cc1 (stereo unspecified) | i | 0.99 | / | / | -8.5 | 108.8 | /
CCOc1ncccc1C(=O)Nc1cccc(C(=O)Nc2cccc(S(=O)(=O)CCO)c2)c1 | i | 0.69 | / | / | 14.6 | 100.9 | -0.7
COc1ccc(-c2[nH]nc3c2C(c2ccoc2)C(C#N)=C(N)O3)cc1 (stereo unspecified) | i | 1.04 | -14.3 | 122.0 | 3.0 | 95.9 | -1.6
Cc1ccccc1-n1c(-c2ccc3ccccc3n2)n[nH]c1=S | i | 0.92 | / | / | / | 93.5 | /
Cc1oc(-c2ccccc2)nc1CS(=O)CC(=O)N1CCc2ccccc2C1 (stereo unspecified) | i | 0.99 | / | / | -1.7 | 99.1 | -3.2
CCOC(=O)/C(N=Nc1c(C)n(C)n(-c2ccccc2)c1=O)=C(/O)c1ccccc1 | i | 1.01 | / | / | 6.5 | 98.9 | /
COCCNC(=O)c1ccccc1NC(=O)CSc1ccc(C)cc1 | i | 1.19 | / | / | 4.1 | 97.8 | /
Cc1ccc2nc(SCC(=O)NCc3ccco3)c(C#N)cc2c1 | i | 1.02 | -14.3 | 89.3 | -3.7 | 104.9 | -3.0
Cc1ccc(-c2nc3ncccc3o2)cc1NC(=O)COc1ccccc1 | i | 0.73 | 9.7 | 132.3 | 0.5 | 102.3 | -2.0
COc1ccc(-n2cc(CNCC3CC(=O)N(C4CC4)C3)c(-c3ccccc3Cl)n2)cc1 (stereo unspecified) | i | 0.94 | -33.3 | 112.8 | 0.7 | 105.6 | /
O=C1NCCc2c1[nH]c1c(Cl)ccc(Cl)c21 | i | 0.85 | 3.0 | 113.0 | 4.9 | 99.2 | -2.6
CCOC(=O)C1CCN(c2nc3ccccc3nc2C(C#N)C(=O)NCCc2ccccc2)CC1 (stereo unspecified) | / | / | / | / | -2.5 | 103.1 | -1.6
CCOC(=O)N1CCC(NC(=O)CCc2c(C)nc3c(c(C)nn3C(C)(C)C)c2C)CC1 | i | 1.04 | -3.7 | 101.4 | -4.8 | 104.5 | 1.1
O=C(CSc1nnc(-c2ccccc2)o1)NC1CCS(=O)(=O)C1 (stereo unspecified) | i | 1 | / | / | 4.5 | 98.5 | -2.1
C=CCn1c(COc2ccc3c(c2)CCCC3)nnc1SCC(=O)Nc1cccc(SC)c1 | i | 0.88 | / | / | -8.3 | 94.3 | -2.0
CC1CCCCN1C(=O)Cc1ccc(Cl)cc1 (stereo unspecified) | i | 0.88 | -334.3 | 67.7 | 0.1 | 96.7 | -1.3
CN(C)C(CNC(=O)C1CCN(S(=O)(=O)c2ccccc2)CC1)c1ccccc1 (stereo unspecified) | i | 0.95 | / | / | / | 100.1 | /
COc1ccc(CNCc2cccc(OC)c2OC)cc1Br | i | 1.02 | / | / | -7.5 | 101.1 | /
Cc1ccc(C(=O)OCC(=O)NCC2CCCO2)c(C)c1 (stereo unspecified) | i | 0.66 | -6.7 | 140.8 | -2.4 | 102.5 | /
COc1ccccc1NC(=O)CCCc1c[nH]c2ccccc12 | i | 1.07 | 21.4 | 121.2 | -8.8 | 108.8 | -1.5

Bioassay records (PubChem BioAssay)
